# AID504770 = growth inhibition of E. coli YBA685, primary screen, V. cholerae RctB inhibitors. E. coli YBA685 rctB-dependent plasmid, OD600 growth, 3 h; active compounds read low. z-score (no concentration beside the values). 0.27% of 130,000 active;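 active means z-score under -2 on both plates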;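 further: wells of about 30 µL received 100 nL stock; score is relative to mean and SD of the test wells; the first replicate is given; strong numbers were not always called active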
# Ba CapD inh = Bacillus anthracis CapD inhibitors, primary screen, biochemical, fluorescence intensity. CapD gamma-glutamyltranspeptidase (Bacillus anthracis Ames Ancestor). purified CapD enzyme, fluorescence intensity read-out; active compounds read low; some hits fall short of the stated cut. z-score (concentration not given with the values). 0.23% of 140,000 active. AID 492967, 2010;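 active means z-score under -4 in either of two replicates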;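 further: stock transfer was 100 nL into about 40 µL; score is relative to mean and spread of the plate; one replicate is shown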
# The depositor's hits bear a star; i = inactive; x = no result given; & = joins results of further samples. An excerpt. The share of hits here may be higher or lower than overall.
Compound	AID504770	Ba CapD inh
Cc1cc(NC=C(C#N)C#N)no1	-0.05	-0.11
COn1c2c(c3c4nonc4ccc31)CCCC2	0.5	-0.35
Cn1cc(/C=C(\C#N)C(=O)OC2CCCCC2)c2ccccc21	0.2	x
O=C(CSc1nncn1-c1ccccc1)Nc1ccccc1C(=O)Nc1ccc2c(c1)OCO2	0.3	x
CCOC(=O)c1cc2c(=O)n(C)c3ccccc3c2s1	-0.5	2.2
CCOc1ccc(N2C(=O)NC(=O)/C(=C\c3ccc(Br)cc3)C2=O)cc1	x	-0.18
Nc1ncnc(-c2ccccc2)n1	x	-0.23
O=C(COCC(=O)N1CCc2ccccc2C1)N1CCc2ccccc2C1	0.55	0.23
CCCCOc1ccc(/C=C2\C(=O)N(c3ccc(C(=O)OC(C)C)cc3)N=C2C)cc1OC	x	0.14
c1ccc2c(c1)oc1c(NCC3CCCO3)ncnc12 (stereo not given)	-0.5	x
O=c1/c(=C/c2ccccc2Cl)sc2nnc(-c3ccccc3Cl)n12	x	0.36
CCOC(=O)c1ccccc1NC(=O)c1sc2ncnc(N3CCC(C)CC3)c2c1C	x	-0.14
C[C@]12CCC(=O)C=C1C=CC1C2CC[C@@]2(C)C1CC[C@@]2(O)CCC(=O)O (stereo not given in full)	0	x
COc1ccc(-c2ncnc(C(F)(F)F)c2-c2cscn2)c(O)c1	-0.4	-0.66
O=C(Cn1c2ccccc2c(=O)c2ccc(Cl)cc21)Nc1ccc(Oc2ccc(Cl)cc2)cc1	x	4.4
Fc1cccc(-c2nc(-c3ccc4sc5ccccc5c4c3)c(-c3ccccc3)[nH]2)c1	x	25
COc1ccccc1C(=O)NCCC(=O)NC1CCCCCC1	-0.05	x
CC(=O)NC(=O)c1cc2cc(Br)ccc2oc1=Nc1cccc(F)c1	x	0.2
CCCn1c(SCc2c(C)noc2C)nc2ccccc2c1=O	1.1	x
c1ccc(CCn2cnc3ccccc32)cc1	-0.85	0.53
Cc1nn(-c2ccccc2)c2sc(C(=O)c3nccn3C)cc12	0.65	1.3
Cc1ccc(/C=C(\NC(=O)c2ccccc2)C(=O)NCC2CCCO2)o1 (stereo not given)	0.75	-2.2
Cc1cc(C(=O)CS(=O)(=O)c2ccc(F)cc2)cc(C)c1OC(=O)N(C)C	x	-0.14
CCOC(=O)C1CCCN(C(=O)CN2N=C(c3ccccc3)CCC2=O)C1 (stereo not given)	0.45	0.03
O=C(Cn1c(-c2ccccc2)c[n+]2ccsc12)c1ccccc1	-0.1	i

Compound	AID504770	Ba CapD inh
CCOC(=O)C(C#N)C(c1ccc2c(c1)OCO2)c1ccccc1OC (stereo not given)	0.35	0.03
Cc1nc2oc3ccc(Cl)cc3c(=O)c2cc1C(=O)OCc1ccccc1	x	0.96
S=c1sc2ccccc2n1CCn1c(=S)sc2ccccc21	0.4	0.51
N#Cc1cc(C(N)=O)c(SCc2ccccc2)nc1N	-0.7	x
O=c1cc(O)c2cccc3c2n1CC3	x	0.62
N#CC(C#N)(Cc1ccc([N+](=O)[O-])cc1)c1ncc(C(F)(F)F)cc1Cl	x	-0.095
CC(=O)N1CCc2c(sc(NC(=O)/C=C/c3ccccc3)c2C#N)C1	-0.15	-0.17
Cc1ccccc1Cn1c(N2CCC(C(=O)N3CCN(C(=O)c4ccco4)CC3)CC2)nc2ccccc21	-0.8	-0.12
O=C1Nc2ccccc2C1C1(O)C(=O)Nc2ccc(F)cc21 (stereo not given)	0	2.4
c1ccc(CNc2ncnc3ccccc23)cc1	-0.65	2.1
O=C(NCc1cc(C(F)(F)F)cc(C(F)(F)F)c1)c1ccc(-n2cccc2)cc1	x	0.26
COc1cccc(/C=C/C(=O)NC2=NCCS2)c1	-1	x
N#CC1=C(N)OC2=C(C(=O)CCC2)C1c1cc2cc3c(cc2nc1Cl)OCO3 (stereo not given)	0.9	x
O=C(COC(=O)c1ccccc1Nc1ccccc1)c1ccc(Cl)cc1	x	2.5
O=c1cc(C(F)(F)F)[nH]c2cc(C(F)(F)F)ccc12	x	80
Cn1cc(C(=O)NCCc2ccccc2)c(=O)c2cc(S(=O)(=O)N3CCCC3)ccc21	-0.35	-0.3
COc1ccc(S(=O)(=O)N2CC(O)CC2C(=O)OCc2nc3sc(C)c(C)c3c(=O)[nH]2)cc1 (stereo not given)	0.05	x
c1ccc(-n2nnnc2SSc2nnnn2-c2ccccc2)cc1	-0.7	x
O=C(Nc1cccc2c1C(=O)c1ccccc1C2=O)c1ccc(S(=O)(=O)N2CCCCC2)cc1	x	0.4
COc1ccc(CN(C)C(=O)c2ccc(=O)[nH]c2)cc1	-0.6	x
Cc1nc(C(F)(F)F)ccc1C(=O)NCC(O)c1ccccc1 (stereo not given)	-0.45	0.51
CN1CCC(N(C)C(=S)NCCc2ccccc2)CC1	-0.9	-0.32
CCSc1nc(-c2ccccc2)nc2c1CCCC2	0.25	-0.21
O=C(CSC1CCCC1)Nc1ccc(N2CCOCC2)cc1	1.3	x
OC(CN1CCN(C(c2ccccc2)c2ccc(Cl)cc2)CC1)Cn1c2ccccc2c2ccccc21 (stereo not given)	x	1.6

# In the list so far, these have a CF3 group:
Compound	AID504770	Ba CapD inh
COc1ccc(-c2ncnc(C(F)(F)F)c2-c2cscn2)c(O)c1	-0.4	-0.66
N#CC(C#N)(Cc1ccc([N+](=O)[O-])cc1)c1ncc(C(F)(F)F)cc1Cl	x	-0.095
O=C(NCc1cc(C(F)(F)F)cc(C(F)(F)F)c1)c1ccc(-n2cccc2)cc1	x	0.26
O=c1cc(C(F)(F)F)[nH]c2cc(C(F)(F)F)ccc12	x	80
Cc1nc(C(F)(F)F)ccc1C(=O)NCC(O)c1ccccc1 (stereo not given)	-0.45	0.51

# Further structures follow.
Compound	AID504770	Ba CapD inh
COc1ccc(-n2c(SCC(=O)NCCc3ccc(S(N)(=O)=O)cc3)nc3n[nH]c(C)c3c2=N)cc1	x	0.41
CCCC1(CCC)NC(=O)N(Cc2ccc(-c3ccc(Br)cc3)o2)C1=O	-0.1	x
O=c1c2ccccc2sn1-c1nc2ccccc2s1	0.4	x
N#Cc1cccc(S(N)(=O)=O)c1	x	-0.8
N#CCCn1cc(Cl)c(=O)c(Cl)c1	-0.2	-0.29
COc1ccc(CN2C(=O)CC(C(=O)O)SC2=Nc2ccccc2)cc1 (stereo not given)	-0.7	0.14
C/C(=C(/C#N)P(=O)(c1ccccc1)c1ccccc1)N1CCOCC1	0.45	x
O=C(NCc1cccs1)C1c2ccccc2C(=O)N(C2CCCC2)C1c1cccs1 (stereo not given)	0.55	-0.12
CCCOC(=O)CN1C(=O)/C(=C/c2ccccc2)SC1=S	-0.45	0.41
O=C(ON1C(=O)C2C3C=CC(O3)C2C1=O)c1cccnc1Oc1ccccc1 (stereo not given)	x	-1.9
COc1ccc(C(=O)CSc2nnc(CN3CCCC3)o2)cc1F	-1.6	x
Cc1ccc(NC(=O)Cc2coc3ccc4ccccc4c23)nc1	-0.45	1.7
COc1ccccc1N1CCN(Cc2cc(Cl)c(O)c3ncccc23)CC1	-0.45&0.15	0.29&-0.05
COc1cc(NC(=O)c2nn3c(c2Br)NC(c2ccccc2)CC3C(F)(F)F)cc(OC)c1OC (stereo not given)	x	-0.86
COc1ccc(CNC(=O)CCn2c(=O)c3sccc3n(CC(=O)N3CCCCC3C)c2=O)cc1 (stereo not given)	1.4	-1
CC1(C)CC(OC(=O)CCC(=O)OC2CC(C)(C)NC(C)(C)C2)CC(C)(C)N1	-0.5	-1.6
COc1ccccc1-n1c(CNC(=O)c2cccs2)nnc1SCC(=O)N1CCc2ccccc21	x	-0.62
COc1cccc(NC(=O)Cn2c(-c3cccc(OC)c3)nc3sc4c(c3c2=O)CCCC4)c1	x	65
N#Cc1cccc(C#N)c1Oc1ccc(S(=O)(=O)NCc2ccco2)cc1	1.3	0.38
Cn1c(=O)oc2cc(S(=O)(=O)N3CCC(C(=O)NCCc4ccc(Cl)cc4)CC3)ccc21	0.05	-1.1
CN1CCN(C(=S)SCC(=O)N2CCCc3ccccc32)CC1	0.15	-0.78
CCC1(C)CC(CCNCc2ccc(N(C)C)cc2)(c2ccccc2OC)CCO1 (stereo not given)	x	-0.46
CCOc1cc(C2C(C#N)=C(N)Oc3n[nH]c(-c4ccccc4)c32)ccc1OC(=O)N1CCOCC1 (stereo not given)	x	0.59
O=C(COC(=O)/C=C/c1ccc2c(c1)OCO2)Nc1ccccc1	0.15	x
O=C(O)/C=C/C(=O)Nc1ccccc1C(=O)O	-0.2	7

# 4 structures already listed, arranged by length of the SMILES, low to high.
Compound	AID504770	Ba CapD inh
N#CCCn1cc(Cl)c(=O)c(Cl)c1	-0.2	-0.29
CCCOC(=O)CN1C(=O)/C(=C/c2ccccc2)SC1=S	-0.45	0.41
COc1ccccc1N1CCN(Cc2cc(Cl)c(O)c3ncccc23)CC1	-0.45&0.15	0.29&-0.05
C/C(=C(/C#N)P(=O)(c1ccccc1)c1ccccc1)N1CCOCC1	0.45	x

# Next results follow:
Compound	AID504770	Ba CapD inh
O=c1c2c3c(sc2nc2ccc(N4CCCCC4)nn12)CCCC3	0.45	0.21
CCSCCOC(=O)C1=C(C)NC2=C(C(=O)CC(c3ccccc3)C2)C1c1cccc(OC)c1OC (stereo not given)	x	2.3
COc1ccc(Cl)cc1NN	-0.8	0.23
CCOc1cc(C(=O)OCCN2C(=O)c3ccccc3C2=O)ccc1OCC(=O)N1CCCCC1	1.4	x
Cc1c(-c2csc(-c3ccc(Cl)cc3)n2)sc2ccc(Cl)cc12	x	-0.2
CC1(C)CC(=O)c2cc(C(=O)NCCC3=CCCCC3)c(=O)n(-c3ccccc3)c2C1	0.45	-0.02
COCCOC(=O)C1=C(C)NC2=C(C(=O)CC(c3ccc(Cl)cc3)C2)C1c1ccc(OC(C)=O)cc1 (stereo not given)	x	2.8
O=C(NC1CCCCC1)c1ccc2c(=O)n(CC3CCCO3)c(=O)[nH]c2c1 (stereo not given)	0.45	3
COc1ccc(C2C(C(=O)NCCCN3CCN(C)CC3)c3ccccc3C(=O)N2Cc2ccc(F)cc2)cc1 (stereo not given)	-0.05	-0.52
Cc1ccc(C2CC(=O)C(C=NCCN3CCNCC3)=C(O)C2)cc1 (stereo not given)	1.1	-0.35
Cc1ccccc1Nc1nc(N)nc(CSc2nnc(-c3ccccc3F)o2)n1	0.45	x
CCOc1cc(C2C(C(=O)OC)=C(C)NC3=C2C(=O)CC(c2ccc(OC)cc2)C3)cc(Cl)c1O (stereo not given)	x	9.2
CC(C)(C)c1ccc(C(=O)CC#N)s1	1.8	0.45
COc1ccc(-c2nnc(SCCOc3ccc(Cl)cc3)o2)cc1	0.1	x
COc1ccccc1-n1nnnc1-c1ccc2ccccc2n1	-1	-0.39
O=C(COC(=O)c1cccnc1Nc1cccc(C(F)(F)F)c1)NCc1ccco1	0.5	x
Cn1ccc(NC(=O)C(c2ccccc2)c2ccccc2)n1	0.15	x
CSC1=NC(C)(C)Cc2c(C)cccc21	-0.65	0.47
Cc1ccc2c(c1)N(C(=O)C1CC1)C(C)(C)c1ssc(=S)c1-2	x	-0.15
O=c1cccc2n1CC1CC2CN(C(=S)NCc2ccccc2)C1 (stereo not given)	x	-0.22
COc1ccc(S(=O)(=O)Nc2sccc2C#N)cc1	0.4	0.4
CSCCC(C(=O)O)N1C(=O)NC2NC(=O)NC21 (stereo not given)	x	-0.38
Cc1cccc(NC(=O)C2(c3ccccc3)CCOCC2)c1	-0.95	0.44
COc1cc(S(=O)(=O)NC(C)(C)CC(C)(C)C)ccc1NC(C)=O	1.1	x
O=C(O)CC(C(=O)O)N1C(=O)/C(=C/c2ccc(Cl)cc2)SC1=S (stereo not given)	x	-1

Compound	AID504770	Ba CapD inh
CCOC(=O)Cc1cc(=O)n2[nH]cc(C#N)c2n1	0	x
CCCOC(=O)c1c(NC(=O)c2c(-c3c(Cl)cccc3Cl)noc2C)sc2c1CCC(C)C2 (stereo not given)	x	0.13
CCNC(=O)NCCC12CC3CC(CC(C3)C1)C2	-0.45	x
CC(C)(C)NCC(=O)Nc1ccc(F)cc1Cl	-0.7	x
O=C(c1ccc(CS(=O)(=O)c2ccc(C(F)(F)F)cn2)o1)N1CCOCC1	-0.75	0.51
O=C(O)CNC(=O)C(CS)Cc1ccccc1 (stereo not given)	x	-0.075
O=S1(=O)C=CC(c2ccccc2)C1 (stereo not given)	-1.1	-0.34
O=C(/C=C/c1ccco1)NCC1(c2ccccc2)CCOCC1	-0.75	-0.54
O=C(O)c1cn(C2CCCCC2)c2ccccc2c1=O	x	-0.085
N#Cc1ccc(CSc2ccc(Cl)cc2)cc1	-0.05	-0.32
CCCOc1ccccc1NC(=O)c1ccc(N)cc1	2.1	0.075
O=C(O)COc1ccc2occ(C(=O)c3cccs3)c2c1	-0.1	-0.61
CCOC(=O)c1ccc(-n2c(C)cc(C=C3C(=O)NC(=S)NC3=O)c2C)cc1	-0.65	-0.74
CCn1c(O)c(C=Nc2cccc(Cl)c2)c(=O)[nH]c1=S	-1.2	-0.09
CN(Cc1ccccc1)C(=O)C1CC(c2ccc(F)cc2)=NO1 (stereo not given)	-0.45	-0.74
Cc1cc(=O)[nH]c(SCC(=O)N2c3ccccc3CCc3ccccc32)n1	0.3	x
CC(O)(CS(=O)(=O)Cc1ccc(Cl)cc1)C(=O)Nc1ccc(Cl)cc1 (stereo not given)	0.8	0
O=C(OCCN1CCCCC1)c1cccc(COc2ccc3ccccc3c2)c1	0.15	0.21
